Screening data deposited in PubChem BioAssay by Johns Hopkins Ion Channel Center.
KCNQ2 inh: KCNQ2 channel blockers in CHO-K1 cells – cell-based, FluxOR thallium flux, B-score, primary screen (AID 2156); O88943; 20 min; hits give low values; only compounds with negative scores are shown here; some inactives read as strong as hits; B-score at 10 µM; hit rate 1.1% among 310,000;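 active = fluorescence ratio B-score at most minus 3 library SDs, with starting brightness B-score within 2 library SDs, cut at about -5.5 in these data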
Target sequence (O88943 whole entry, looked up): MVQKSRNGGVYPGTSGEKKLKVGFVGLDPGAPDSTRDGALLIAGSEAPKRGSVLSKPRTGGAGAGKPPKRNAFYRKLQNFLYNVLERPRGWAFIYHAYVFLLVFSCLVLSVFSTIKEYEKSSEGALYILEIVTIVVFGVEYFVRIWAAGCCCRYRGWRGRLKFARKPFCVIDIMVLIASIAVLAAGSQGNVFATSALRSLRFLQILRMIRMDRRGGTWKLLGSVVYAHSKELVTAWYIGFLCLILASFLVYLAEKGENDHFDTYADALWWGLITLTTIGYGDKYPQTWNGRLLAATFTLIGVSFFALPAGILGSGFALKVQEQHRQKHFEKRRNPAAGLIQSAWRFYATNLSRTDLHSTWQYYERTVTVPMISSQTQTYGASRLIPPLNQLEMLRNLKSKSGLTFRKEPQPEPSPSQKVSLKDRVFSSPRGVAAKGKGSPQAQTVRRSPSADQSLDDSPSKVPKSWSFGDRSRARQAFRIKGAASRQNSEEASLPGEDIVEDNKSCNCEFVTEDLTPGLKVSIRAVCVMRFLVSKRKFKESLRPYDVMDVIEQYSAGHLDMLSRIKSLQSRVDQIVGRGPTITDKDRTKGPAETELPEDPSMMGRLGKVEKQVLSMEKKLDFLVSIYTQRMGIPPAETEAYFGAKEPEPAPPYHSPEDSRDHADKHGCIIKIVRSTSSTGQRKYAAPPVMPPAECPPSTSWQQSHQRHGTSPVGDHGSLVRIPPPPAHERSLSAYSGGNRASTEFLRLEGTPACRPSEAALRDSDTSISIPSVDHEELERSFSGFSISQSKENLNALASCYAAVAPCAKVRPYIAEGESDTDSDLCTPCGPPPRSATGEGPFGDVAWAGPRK
KCNQ2 inh baseline: further read-out of KCNQ2 inh, marked with its call; B-score; measured here: initial fluorescence intensity artifact check;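 brightness before thallium and not channel activity; 0 = typical well and far values either way flag optical interference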
Active calls of the source: *; i = inactive; & = joins results of further samples.

SMILES	KCNQ2 inh	KCNQ2 inh baseline
O=C(N/N=C\C=C\c1ccc([N+](=O)[O-])o1)c1cccs1	i	1.4
CC(=O)N1CCCc2cc(S(=O)(=O)N3CCCC(C(=O)NCc4ccccc4)C3)ccc21 (stereo not given)	i	1.18
O=C(Nc1ccccc1Oc1ccsc1C(=O)O)c1ccccc1	i	0.81
COC(=O)c1c(C)nc(C)c(C(=O)OC)c1-c1cccs1	i	0.72
Cc1ccc(C(=O)C(C)OC(=O)Cn2[nH]c(=O)c3ccccc3c2=O)cc1 (stereo not given)	i	-1.48
CCc1ccc(OCCCC(=O)Nc2ccc(N3CCOCC3)cc2)cc1	i	-0.98
CC(C)CN(C(=O)COC(=O)Cn1cnc2ccccc2c1=O)C1CCS(=O)(=O)C1 (stereo not given)	i	0.01
Cc1c(C(=O)NCc2cccnc2)oc2ccccc12	i	0.84
O=C(O)CCCCCNS(=O)(=O)c1ccc(Cl)cc1	i	-0.72
CCOC(=O)c1ccc(NC(=O)CCS(=O)(=O)c2cccc3nonc23)cc1	i	-1.2
Cc1ccc(CNc2nc(N)c([N+](=O)[O-])c(Nc3ccc(F)cc3)n2)cc1	i	-1.17
CCCC(=O)c1cc(F)c(N2CCOCC2)cc1C	i	-1.83
CCOC(=O)Nc1sc2c(c1C#N)CCC(C)C2 (stereo not given)	i	0.89
Cc1ccc(N(CCC#N)C(=O)COC(=O)C2=COCCO2)cc1	i	-0.15
C/C(=N\Nc1nccnc1Cl)c1ccc(Br)cc1	i	0.34
CC(=O)Nc1ccc(C(=O)NNC(=O)CCc2ccccc2)cc1	i	0.1
CCOc1nc(S(=O)(=O)c2ccc(C)cc2)c(Cl)s1	i	-0.76
CC1(C)CC(=O)C(C=NCCN2CCN(CC(=O)Nc3ccccc3)CC2)=C(O)C1	i	-0.06
COC(=O)c1c(NC(=O)C2(C)Cc3ccccc3C(=O)O2)sc2c1CCCC2 (stereo not given)	i	2.36
COc1cc(S(=O)(=O)NC2CCCCC2)ccc1Cl	i	0.22
CC(C)c1ccc(OCC(=O)N(Cc2ccccc2)c2ccccn2)cc1	i	-0.94
O=C(O)c1cccc(Nc2nc(-c3ccccc3)nc3ccccc23)c1	i	-1.14
Cc1noc(C)c1COc1cccc(C(=O)OCCOc2ccc(F)cc2)c1	i	-1.57
Cc1nc2c(C#N)c[nH]n2c(=O)c1CCO	i	0.4
Cc1noc(NS(=O)(=O)c2ccc(NC(=O)C(F)(F)C(F)(F)C(F)(F)F)cc2)c1C	i	-1.95

Five entries from above, in markdown:
| Structure | KCNQ2 inh | KCNQ2 inh baseline |
| --- | --- | --- |
| CC1(C)CC(=O)C(C=NCCN2CCN(CC(=O)Nc3ccccc3)CC2)=C(O)C1 | i | -0.06 |
| O=C(N/N=C\C=C\c1ccc([N+](=O)[O-])o1)c1cccs1 | i | 1.4 |
| CC(C)c1ccc(OCC(=O)N(Cc2ccccc2)c2ccccn2)cc1 | i | -0.94 |
| Cc1noc(C)c1COc1cccc(C(=O)OCCOc2ccc(F)cc2)c1 | i | -1.57 |
| Cc1ccc(C(=O)C(C)OC(=O)Cn2[nH]c(=O)c3ccccc3c2=O)cc1 (stereo not given) | i | -1.48 |

Full records as entered above. Screens in order: KCNQ2 inh, KCNQ2 inh baseline
Entry for CCOC(=O)c1ccc(NC(=O)CCS(=O)(=O)c2cccc3nonc23)cc1 = i, -1.2
Entry for C/C(=N\Nc1nccnc1Cl)c1ccc(Br)cc1 = i, 0.34
Entry for O=C(N/N=C\C=C\c1ccc([N+](=O)[O-])o1)c1cccs1 = i, 1.4
Entry for CC(C)CN(C(=O)COC(=O)Cn1cnc2ccccc2c1=O)C1CCS(=O)(=O)C1 (stereo not given) = i, 0.01

More entries follow.
SMILES	KCNQ2 inh	KCNQ2 inh baseline
COc1ccc(S(=O)(=O)Nc2cc3c4c(c2)CCC(=O)N4CCC3)cc1C	i	-0.11
O=C(Nc1cccc2cccnc12)c1ccc(Br)o1	i	1.54
COc1ccccc1OCC(=O)N1CCCC(Nc2ccc(C)c(C)c2)C1 (stereo not given)	i	-0.56
CCN=c1sc(C(=O)Nc2ccccc2)c(C)n1CC	i	-0.48
O=C(CC1C(=O)NCCN1Cc1ccccc1C(F)(F)F)NC1CCC1 (stereo not given)	i	0.63
CC(=O)Nc1nc(CCC(C)C)cc2c1c(=O)oc1ccccc12	i	-0.86
Clc1cccc(Cl)c1C[n+]1cccc2ccccc21	i	0.77
CCN1C=CC2=C(C#N)C(N)C(C#N)(C#N)C(c3ccccc3C(F)(F)F)C2C1 (stereo not given)	i	5.53
Cc1ccc(S(=O)(=O)N2c3ccccc3OCC2c2ccccc2)cc1 (stereo not given)	i	-1.69
Cn1cc(Cl)cc(C(=O)Nc2ccccc2)c1=O	i	-0.44
COC(=O)c1ccc(C(=O)OC)c(NC(=S)N2CCN(C)CC2)c1	i	0.79
CCCCNCc1ccc(SC)cc1	i	0.41
CCN(CC(=O)NCc1ccccn1)S(=O)(=O)c1ccc(OC)cc1	i	-0.83
COc1cc2c(cc1OC)C(C)N(S(=O)(=O)c1cn(C)cn1)CC2 (stereo not given)	i	1.02
CC(=O)Nc1ccc(OC(=O)Cc2ccc(Cl)cc2)cc1	i	0.17
COc1ccc(Cl)cc1C(=O)C1CCCN(Cc2cnc(N3CCOCC3)s2)C1 (stereo not given)	i	0.49
O=C(NCC(O)c1ccccc1)c1ccccc1 (stereo not given)	i	-1.19
O=C(NC1CCCCC1)C(c1ccccc1F)N(Cc1ccco1)C(=O)c1ccccn1 (stereo not given)	i	-0.68
CSCCC(NC(=O)COc1ccccc1)C(=O)NCCOc1ccc(C)cc1 (stereo not given)	i	-1.25
O=C(COC(=O)[C@@H]1CCCN1S(=O)(=O)c1ccccc1F)Nc1ccc(OC(F)F)cc1	i	-0.93
COc1ccc(C)cc1NC(=O)CC(NC(C)=O)c1ccccc1 (stereo not given)	i	0.23
O=c1c2ccccc2nc(/C=C/c2c[nH]c3ccccc23)n1-c1ccc([N+](=O)[O-])cc1	i	-0.7
O=[N+]([O-])c1ccc(/C=N/Nc2nc(N3CCCCC3)nc(N3CCCCC3)n2)o1	-5.56*	0.09*
O=[N+]([O-])c1ccc(SCCc2ccncc2)cc1	i	1.11&1
Cc1cc(C)cc(N(C(C)C(=O)NC2CCCC2)S(C)(=O)=O)c1 (stereo not given)	i	-0.68
Later entries.
SMILES	KCNQ2 inh	KCNQ2 inh baseline
CCC(=O)c1c[nH]c(C(=O)NCCCn2ccnc2)c1	i	0.86
CC1(C)CC2CC(C)(CN2C(=O)COC(=O)c2ccc(Cl)c(N)c2)C1 (stereo not given)	i	0.64
Cc1cc(Cl)cc(C)c1OCCCCN1CCOCC1	i	-0.98
CCN(CC)CCCNC(=O)c1cc(-c2ccc(Cl)c(Cl)c2)on1	i	0.92
O=C(c1cc2cc([N+](=O)[O-])ccc2s1)N1CCCCC1	i	0.3
CC(C)OC(=O)CSc1ncnc2c1cnn2-c1ccccc1	i	0.31
Fc1ccc(C2=CC(c3ccco3)n3ncnc3N2)cc1 (stereo not given)	i	4.3
O=C(COC(=O)C1CC2CCCC(C1)C2=O)Nc1nc(-c2ccc(F)c(F)c2)cs1 (stereo not given)	i	-0.85
Cc1cccc(C(=O)Nc2sc3c(c2C#N)CCCCC3)c1	i	-1.46
Cc1oc(-c2ccccc2F)nc1CS(=O)(=O)CC(=O)NC1CCCC(C)C1C (stereo not given)	i	1.26
FC(F)(F)c1ccc(-c2n[nH]c(=S)o2)nc1	i	0.81
O=C(NCCCNC(=O)c1ccc(Cl)cc1Cl)c1ccccn1	i	0.19
COc1ccc(-c2cc3nc(-c4ccccc4)cc(N4CCC5(CC4)OCCO5)n3n2)cc1	-6.5*	0.01*
CC1CCCC/C1=N\NC(=S)Nc1cccnc1 (stereo not given)	i	0.44
Cc1ccc(-c2cn3cccc(C)c3n2)cc1	i	-0.09
CC1CCN(S(=O)(=O)c2ccc(S(=O)(=O)N3CCCC3)cc2)CC1	i	1.33
COc1ccc(CC(=S)N2CCOCC2)cc1OC	i	0.27
COc1ccc(/C=N\NC(=O)c2cccc([N+](=O)[O-])c2)cc1Cn1cc([N+](=O)[O-])cn1	i	-3.56
COC/C=C/C1=CC2=CC(=O)C(C)(OC(=O)c3cnc4ccccc4n3)C(=O)C2=CN1C1CCCCC1 (stereo not given)	i	0.15
CN(CC(=O)NCc1ccccn1)S(=O)(=O)c1ccc(Cl)cc1	i	-0.22
CC1=C(C)C(=O)C(CCCCC#CCCCC#CCO)=C(C)C1=O	-6.83*	-1.52*
O=S(=O)(NC1CCN(Cc2ccccc2)CC1)c1cccc(S(=O)(=O)N2CCOCC2)c1	i	0.08
CS(=O)(=O)/C(C#N)=C\c1cnc(S(=O)(=O)c2ccccc2)s1	i	0.12
COc1ccc(CN2C(=O)c3cccnc3C2=O)cc1S(=O)(=O)N1CCCCC1C (stereo not given)	i	-0.81
COC(=O)c1ccc(CNC(=O)COC(=O)c2ccc(N(C)C)cc2)cc1	i	0.21
Later entries.
SMILES	KCNQ2 inh	KCNQ2 inh baseline
O=C(NCc1ccc2c(c1)OCO2)c1nc(Cn2cc([N+](=O)[O-])cn2)no1	i	0.91
COc1cccc2oc3ccc(C#Cc4ccccn4)cc3c(=O)c12	i	0.01
O=C(CN(Cc1ccco1)C(=O)CNS(=O)(=O)c1ccccc1)NCc1ccccc1	i	0.98
Cc1c(NC(=S)NC(=O)c2cccc3ccccc23)cccc1C(=O)O	i	-0.75
Cc1ccc(-n2nc3c(=O)n(CCCC(=O)NCc4cccc(Cl)c4)nc(C)c3c2C)cc1	i	-1.15
Cc1ccccc1-c1nc(CS(=O)(=O)CC(=O)NCCCN2CCOCC2)c(C)o1	i	0.37
CC(C)c1ccc(N(CC(=O)NC2CCCC2)C(=O)CCC(=O)Nc2nccs2)cc1	i	0.83
COc1ccccc1N1CCN(S(=O)(=O)c2cc(C)sc2C)CC1	i	0.13
COc1nc(N(c2ccccc2)c2ccccc2)nc(-n2ccnc2)n1	i	-0.11
C=CCn1c(SCC2=C(C(=O)OCC)C(C)NC(=O)N2)nnc1C1CCCCC1 (stereo not given)	i	-0.13
CC(C)N(C)C(=O)CCc1nnc(CCc2c[nH]c3ccccc23)o1	i	-0.13
CC1C2C(C)N(C)C(=O)N(C)C2N(C)C(=O)N1C (stereo not given)	i	5.01
O=C1C(c2c(O)[nH]c3ccccc23)=Nc2ccccc21	i	-0.15
CCOc1ccc(NC(=O)CCC(=O)NNC(=O)COc2ccc(C)cc2)cc1	i	1.78
COc1ccc(C2(C(=O)Nc3ccccc3)CCOCC2)cc1	i	0.02
O=C(COc1ccc(Cl)cc1)N/N=C/CCc1ccccc1	i	0.12
Cc1cc(Cl)ccc1OCC(=O)NNC(=O)C1CCCO1 (stereo not given)	i	0.17
Oc1ccccc1N1CCN(c2ncnc3sc(-c4ccccc4)cc23)CC1	i	-0.43
Cc1c(NC(=O)COc2c(F)c(F)c(F)c(F)c2F)c(=O)n(-c2ccccc2)n1C	i	-0.07
CCN1CC=C2C(C1)C(c1ccc(Cl)s1)C(C#N)=C(N)C2(C#N)C#N (stereo not given)	i	12.9
CC(C)(C)C1CCC(=O)N(CCSc2ccccc2)CC1 (stereo not given)	i	-1.21
Cc1cc(NC(=O)COC(=O)COc2ccc3c4c(c(=O)oc3c2)CCC4)no1	i	-1.32
NC(=O)C1CCN(CCS(=O)(=O)c2ccc(Cl)cc2)CC1	i	0.55
CC(C)(C)c1ccc(C(=S)N2CCN(c3ccccc3)CC2)cc1	i	-0.1
CCC(=O)N1CCc2cc(Br)cc(S(=O)(=O)N(C)c3ccc(OC)cc3OC)c21	i	1.35

Brought forward from above: 2 compounds, then new ones.
SMILES	KCNQ2 inh	KCNQ2 inh baseline
CC(C)(C)c1ccc(C(=S)N2CCN(c3ccccc3)CC2)cc1	i	-0.1
CCC(=O)N1CCc2cc(Br)cc(S(=O)(=O)N(C)c3ccc(OC)cc3OC)c21	i	1.35
Cc1ccc(SCCOCCN2CCc3ccccc3C2)cc1	i	0.01
C=C(C)Cn1c(Sc2nc3ccccc3[nH]2)nc2c1c(=O)[nH]c(=O)n2C	i	1.46
CCc1cccc2c(C(=O)CCl)c[nH]c12	i	-0.61
Cc1sc2nc(CC(=O)N3CCCC3)[nH]c(=O)c2c1C	i	1.63
CCCc1cc(=O)oc2cc(OCC(=O)N(C)C)c(Cl)cc12	i	1.11
CCn1nc(NC(=O)c2cccnc2)c2cc3ccccc3nc21	i	0.75
COc1ccccc1CNC(=O)C/C(C)=N/NC(=O)Cc1ccc(OC)c(OC)c1	i	0.34
COc1nc(OC)nc(N2CCC(C(=O)NCC3CCCCC3)CC2)n1	i	-0.98
CC1CCN(C(=O)CSc2nnc(-c3cc4ccccc4cc3O)n2Cc2ccco2)CC1	i	1.37
COc1cccc(C(=O)NNC(=O)c2cccnc2)c1	i	-0.01
CC1CCc2[nH]c3ccc(C(=O)N(C)CC(=O)Nc4ccc(F)cc4)cc3c2C1 (stereo not given)	i	-0.6
COc1ccc(-n2c(Cc3cccn3C)nnc2SCC(=O)Nc2ccc(C)cc2C)cc1	i	-1.11
Cc1cccc(N2CCN(C(=O)C3CC(=O)N(C4CCCC4)C3)CC2)c1C (stereo not given)	i	-0.22
Cc1ccnc(NCc2c(O)ccc3ccccc23)c1	i	1.66
O=C(/C=C/c1ccc(Cl)cc1)Nc1ccc(N2CCOCC2)cc1	i	1.09
CC(=O)c1ccc(Nc2nc(NCCO)nc(OC(C(F)(F)F)C(F)(F)F)n2)cc1	i	0.05
CCOc1ccc2nc(SCC(=O)NC3CCCc4ccccc43)sc2c1 (stereo not given)	i	0.31
O=C(NC1CCCCCC1)C1CC(=O)N(Cc2ccccc2)C1 (stereo not given)	i	-2.71
C=CCN(C(=O)CCC(=O)Nc1cc(C)on1)C(C(=O)NC(C)(C)C)c1ccc(OC)cc1 (stereo not given)	i	2.02
COC(=O)C1C2CCC(C2)C1C(=O)OCC(=O)c1ccccc1 (stereo not given)	i	-1.35

These rows are one share of the data, so the mix of outcomes need not match the whole.
